# GIV Gai3 FP = blocks GIV peptide binding to rat Galpha-i3. percent of control (FP), % (test concentration not listed). AID 1224905. actives 0.42% (n = 210,000). Galpha-i3/FITC-GIV peptide fluorescence polarization, 90 min; hits give low values; scaled: aluminum fluoride 0%, vehicle 100%. P08753;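 active means replicate mean at 85% of control or lower, very high polarization wells dropped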;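 further: wells of about 15 µL received 100 nL stock; the first replicate is given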
# Target sequence (P08753 whole entry, looked up): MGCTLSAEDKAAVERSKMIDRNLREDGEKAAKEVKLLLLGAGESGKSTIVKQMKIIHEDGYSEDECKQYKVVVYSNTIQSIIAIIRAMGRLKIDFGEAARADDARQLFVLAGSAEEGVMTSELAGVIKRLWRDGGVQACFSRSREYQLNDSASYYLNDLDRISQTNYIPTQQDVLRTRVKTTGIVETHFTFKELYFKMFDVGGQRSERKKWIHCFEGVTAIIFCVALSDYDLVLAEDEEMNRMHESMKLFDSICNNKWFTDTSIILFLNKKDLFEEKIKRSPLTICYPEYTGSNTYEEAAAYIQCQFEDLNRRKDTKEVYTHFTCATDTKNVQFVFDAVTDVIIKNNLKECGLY
# * hit, by the source's call. An excerpt (hit frequency here may not be typical).
SMILES,GIV Gai3 FP
CCOC(=O)C(=O)N1c2ccccc2-c2c(ssc2=S)C1(C)C,106
O=C1C(=O)N(c2ccccn2)C(c2cccnc2)/C1=C(/O)c1ccccc1 (configuration not stated),113
CCOc1ccc(-n2c(=S)sc3c(=O)[nH]c(SCC(=O)NCC4CCCO4)nc32)cc1 (configuration not stated),122
CC(C)NC(=O)CCn1c(=O)c2cc(Cl)ccc2n2c(=O)n(CC(=O)NC3CCCC3)nc12,104
CCN(Cc1ccccc1)S(=O)(=O)c1ccc(F)c(C(=O)Nc2cc(Cl)ccc2OC)c1,102
O=C(CCc1c(-c2ccc(F)cc2)nc2ccccn12)NCCC1=CCCCC1,105
Cc1ccc(NS(=O)(=O)c2cc(-c3nc(C(C)C)cs3)cs2)c(Br)c1,109
COc1ccc(NC(=O)c2cc3cccc(OC)c3oc2=Nc2ccc(C(=O)O)cc2)c(OC)c1,106
O=C(Cn1nc(C(=O)N2CCCC2)ccc1=O)N1CCCC1,100
CCOc1ccccc1NC(=O)c1c(NCc2ccncc2)sc2c1CCCCC2,108
O=C1CC2c3ccccc3C1C1C(=O)N(c3cccnc3)C(=O)C21 (configuration not stated),103
Cc1ccc2c(c1)NC(=O)c1cc(S(=O)(=O)N3CCCCC3)ccc1O2,103
Cc1noc(C)c1C1CCCN1Cc1cccc(F)c1F (configuration not stated),104
COc1ccccc1N1CCN(Cc2cc(COCc3ccccc3)c3cccnc3c2O)CC1,106
CCOc1ccc2nc(-n3nc(C)c4c3NC(=O)CC4c3cnn(CC)c3)sc2c1 (configuration not stated),103

# Reformatted: entries from further up
> CCOc1ccc2nc(-n3nc(C)c4c3NC(=O)CC4c3cnn(CC)c3)sc2c1 (configuration not stated)
  GIV Gai3 FP = 103
> COc1ccc(NC(=O)c2cc3cccc(OC)c3oc2=Nc2ccc(C(=O)O)cc2)c(OC)c1
  GIV Gai3 FP = 106
> O=C1CC2c3ccccc3C1C1C(=O)N(c3cccnc3)C(=O)C21 (configuration not stated)
  GIV Gai3 FP = 103

# The list continues.
SMILES,GIV Gai3 FP
CCCNC(=O)C1CCC(CNS(=O)(=O)c2ccc3c(c2)CC(C)N3C(=O)C2CC2)CC1 (configuration not stated),98
CC(=O)c1sc(NC(=O)c2ccc(S(=O)(=O)N3CCc4ccccc43)cc2)nc1C,98
Cc1oc(-c2ccccc2)nc1Cn1nnc(-c2nc(-c3cccc(Cl)c3)no2)c1C,106
Cc1ccc(C2=Nn3cnnc3SC2)cc1,120
CC(=O)c1c(CSc2ccccc2)oc2ccc(O)c(CN(C)C)c12,109
O=C(c1ccc(Cl)cc1)N1CCc2cc(CNS(=O)(=O)c3ccc(F)c(Cl)c3)ccc21,103
O=C(Nc1nnc(SCc2nnc(-c3ccccc3)o2)s1)c1ccccc1,105
Cc1cc(C2CCCN2C(=O)Nc2ccc3c(c2)OCO3)no1 (configuration not stated),107
O=C(Cn1nc2c(SC3CCCCC3)nccn2c1=O)NC1CCCC1,100
CCOc1ccc(Cc2n[nH]c(=S)o2)cc1,98
O=C(CSc1nc2ccccc2nc1Cc1cccc([N+](=O)[O-])c1)Nc1ccc(F)cc1F,106
CN(C)S(=O)(=O)c1cc2c(cc1Oc1ccc(Cl)cc1)Oc1ccccc1NC2=O,105
COc1cc(OC)c(C2C3=C(CCCC3=O)Nc3ncnn32)cc1OC (configuration not stated),99
COc1ccc(C(=O)N2N=C3c4ccccc4S(=O)(=O)N3C2N(C)C)cc1 (configuration not stated),108
Fc1ccc(-c2nc(-c3ccc4nncn4c3)no2)c(Cl)c1,102
CCOc1ccc(-c2csc(Nc3ccccn3)n2)cc1,108
CCC(C)NC(=O)C(C)C1CCN(C(=O)c2cc3cc(Cl)ccc3[nH]2)CC1 (configuration not stated),104
CCCc1nnc(-c2sccc2C)o1,105
COC(=O)C1=C(C(=O)OC)SC(=C2C(=S)C(C)(C)N(C(=O)COc3ccc(Cl)cc3)c3cc(C)c(C)cc32)S1,109
CCc1onc(C)c1C1CCCN1Cc1ccc(OC)cc1 (configuration not stated),102
CC1=C(C(=O)Nc2ccccc2)C(c2cccc(Br)c2)n2nc(SCc3ccccc3)nc2N1 (configuration not stated),99
c1ccc(CSc2nc3ccccc3n3nnnc23)cc1,108
CCOc1ccc(NC(=O)c2c(NC(=O)COc3ccccc3)sc3c2CCC3)cc1,108
COc1ccc(-n2c(-c3ccc(Cl)cc3)cn3c4c(=O)n(C)c(=O)n(C)c4nc23)cc1,107
Cc1nc(CNC(=O)[C@H]2CSCN2S(=O)(=O)c2ccc(Br)cc2)cs1,103
O=C(CSc1ncnc2sc3c(c12)CCCC3)Nc1ccc2c(c1)OCCO2,107
COc1ccc(CCNS(=O)(=O)c2ccc(F)c(C(=O)Nc3cc(Cl)ccc3Cl)c2)cc1OC,103
CCOc1cc(-c2nc3sc4c(c3c(=O)[nH]2)CCCC4)ccc1OCCOc1ccccc1OC,104
Cc1ccc(-c2nc3nc(-c4ccc(Br)cc4)cn3nc2-c2ccc(C)cc2)cc1,118
CCCNc1ncnc2c1c(-c1ccccc1)cn2-c1cccc(C)c1,109
COc1ccc(OC)c(C2CC(c3ccc(Br)cc3)=NN2C(=O)CCC(=O)O)c1 (configuration not stated),106
CCc1nnc(-c2coc(S(=O)(=O)N3CCCC3)c2)o1,109
CC1=C(C(=O)OC2CCCCCCC2)C(c2cccc(Br)c2)NC(=O)N1 (configuration not stated),103
CC(C)c1nc(CN2CCCCC2C)cc(=O)[nH]1 (configuration not stated),104
O=C(O)CC(C(=O)O)N1C(=O)/C(=C/c2ccc(-c3ccc(Br)cc3)o2)SC1=S (configuration not stated),179
Cc1ccc(NC(=O)C(=O)NCCN2CCN(C(=O)c3cccc(C)c3)CC2)cc1,104
Nc1c(C(=O)c2ccc(Br)cc2)oc2ccccc12,104
CCCOc1ccc(C2C3CN(C)CC=C3C(C#N)=C(N)C2(C#N)C#N)cc1OCC (configuration not stated),113
C=CCn1ccc2c(OCC(=O)Nc3ccc4c(c3)OCCO4)cccc2c1=O,99
O=C(Nc1ccc(Sc2nc3ccccc3n3nnnc23)cc1)c1ccccc1Cl,103
N#Cc1c(NC(=O)c2ccc(Cl)cc2Cl)oc(-c2ccccc2)c1-c1ccccc1,104
Cc1sc(-c2nc(-c3cccc(F)c3)no2)cc1S(=O)(=O)N1CCN(c2ccccn2)CC1,102
O=C(Nc1c2c(nn1-c1ccc(Cl)cc1)CS(=O)(=O)C2)c1cc2ccccc2oc1=O,107
O=C(CSc1n[nH]c(-c2ccncc2)n1)c1ccc(Cl)cc1,99
CCN(CC)c1nc(C)nc2sc(C(=O)Nc3ccc(F)cc3F)c(C)c12,100
Cc1ccc(NC(=O)CCc2nc(-c3ccc(S(=O)(=O)N4CCCC4)cc3)no2)cc1C,104
CC(=O)Nc1ccc(S(=O)(=O)NCCSc2nc3ccccc3s2)cc1,106
Cc1sc(-c2nc(-c3ccc(Cl)cc3)no2)cc1S(=O)(=O)N1CCc2ccccc2C1,98
COc1ccc(OC)c(C2Nc3ccc4ccccc4c3C3=C2C(=O)CCC3)c1 (configuration not stated),110
COc1ccc(-c2[nH]nc3c2C2(C(=O)N(CC(=O)O)c4ccccc42)C(C#N)=C(N)O3)cc1OC (configuration not stated),107
CC1=NN(c2ccc(Cl)c(C(=O)O)c2)C(=O)/C1=C/c1ccc(-c2ccccc2Cl)o1,107
CCN(CC)CCNC(=O)c1nc(N2CCSCC2)c2cn(C)nc2n1,102
CN(CCNC(=O)CCC(=O)N1CCCN(c2nc3cccnc3s2)CC1)C1CCCCC1,101
CCOC(CNC(=O)c1ccc2c(c1)ncn2-c1cc(Cl)ccc1OC)OCC,107
Cc1ccc(C2CC(c3cccs3)=NN2C(=O)CSc2nnc(CNC(=O)c3ccccc3F)n2C)cc1 (configuration not stated),111
O=C(Cn1nc2c3scc(-c4ccc(F)cc4)c3ncn2c1=O)Nc1ccc(F)cc1,99
COc1ccccc1N1CCN(c2ncnc3scc(-c4ccccc4)c23)CC1,115
CCN(C(=O)CSc1nc2[nH]ncc2c(=O)n1-c1ccc(Br)cc1)c1cccc(C)c1,97
Cc1c(Br)c(C(F)(F)F)nn1CC(=O)Nc1cc(O)cc([N+](=O)[O-])c1,122
COc1ccc(CN(C)Cc2cc(=O)n3[nH]c(-c4cccc(C)c4)cc3n2)cc1,105

# (list continues)
SMILES,GIV Gai3 FP
COc1cc(/C=C2\N=C(c3ccccc3)N(c3ccc(C)cc3C)C2=O)cc(OC)c1OC,106
CC(=O)c1cccc(Nc2nc(-c3ccccc3)nc3ccccc23)c1,113
COc1ccc(C2SCCN2S(=O)(=O)c2ccc(-c3ccccc3)cc2)cc1OC (configuration not stated),106
CC1(C(=O)NCc2cccc(F)c2)CCCN(S(=O)(=O)c2cccc(Cl)c2)C1 (configuration not stated),106
CCOC(=O)C1=CN(Cc2ccc(F)cc2)C=C(C(=O)OCC)C1c1cc(Br)c(OC)c(OCC)c1,106
CCCCNC(=O)c1cccnc1SCc1ccccc1Cl,104
COc1ccc(N(C)S(=O)(=O)c2ccc3c(c2)C(=O)Nc2ccccc2O3)cc1,103
O=c1n(Cc2cccc(C(F)(F)F)c2)nc2c(S(=O)(=O)N3CCOCC3)cccn12,99
CCCCN(CCCC)S(=O)(=O)c1ccc2c3c(cccc13)C(=O)N2,109
CCNc1ncnc2onc(-c3cccc(Cl)c3)c12,103
COc1cc(-c2nc(-c3cccc(C(F)(F)F)c3)no2)cc(OC)c1OC,113
COC(=O)C1=C(N)N(c2ccc(S(N)(=O)=O)cc2)C2=C(C(=O)CCC2)C1c1ccc(OC)c(OC)c1 (configuration not stated),137
O=C(CCn1nnc2cc(-c3noc(C4CCC4)n3)ccc21)N1CCCC1,104
O=C(N1CCC(n2nnc3cc(F)ccc3c2=O)CC1)C1(c2ccccc2)CC1,102
Cc1noc(C)c1CCN(C)C(=O)c1nc(C2CC2)nc2c1OCCO2,106
O=C1CCCc2c1cc(C(=O)Nc1ccc(F)cc1)c(=O)n2-c1ccc(F)cc1,103
COc1ccc(/C(O)=C2/C(=O)C(=O)N(c3ccc(C(=O)O)cc3)C2c2ccccc2)cc1 (configuration not stated),115
CC1(C)c2ccccc2N(CC(=O)NCc2ccccc2)C12C=Cc1c(ccc3ccccc13)O2 (configuration not stated),112
C=CCSc1n[nH]c(NC(C)=O)n1,105
COc1ccc(C2C(C(=O)Nc3cccc(C(F)(F)F)c3)=C(C)NC3=C2C(=O)CCC3)c(OC)c1 (configuration not stated),101
Cc1ccc(N2C3=[N+](CCCCC3)CC2(O)c2ccc(C)cc2)cc1 (configuration not stated),106
O=C(NCc1nnc(SCC(=O)N2N=C(c3cccs3)CC2c2ccc(F)cc2)n1-c1ccccc1)c1ccco1 (configuration not stated),107
COc1cccc(NC(=O)c2sc3nc4c(c(-c5cccs5)c3c2N)CCCC4)c1,116
COc1ccc2nc(NC(=O)CC3COc4ccccc4NC3=O)sc2c1 (configuration not stated),104
CCOC(=O)c1nnn(-c2nonc2N)c1CSc1nc2ccccc2[nH]1,99
CCOC(=O)CSc1nc2c(sc(=S)n2-c2ccccc2)c(=O)[nH]1,113
Cc1ccccc1CNC(=O)C1CCCN(C(=O)C2Sc3ccccc3NC2=O)C1 (configuration not stated),105
CCOC(=O)C1CCCN(C(=O)c2c[nH]c3ccc(S(=O)(=O)N(C)c4ccc(OCC)cc4)cc3c2=O)C1 (configuration not stated),104
CC(C)CCNC(=O)C1CCCN(C(=O)c2ccc(NS(=O)(=O)c3ccccc3)cc2)C1 (configuration not stated),106
CCCN1CCN(C(=O)c2nc(N3CCSCC3)c3cn(C)nc3n2)CC1,103
CS(=O)(=O)N1CCN(c2ccc(N3CCOCC3)nn2)CC1,103
Cc1ccc(C)c(CSc2nc3c(=O)[nH]cnc3n2C)c1,102
CCN(CC)c1nc2cc(C(=O)OC)ccc2c(=O)n1Cc1ccc(C)cc1,105
O=C(c1cccc(Cl)c1)N1CCN(Cc2cc(=O)n3nc(-c4cccc(F)c4)sc3n2)CC1,95
CCC1CCc2c(sc(NC(=O)c3c(-c4ccccc4)noc3C)c2C(N)=O)C1 (configuration not stated),103
CC(C)N1CCc2c(sc(NC(=O)c3ccc(F)cc3)c2-c2nc3ccccc3s2)C1,-3.2*
CCOC(=O)C(NC(=O)c1cccc(C(F)(F)F)c1)(Nc1sc2c(c1C#N)CCCC2)C(F)(F)F (configuration not stated),99
Cc1cc2[nH]c(C(=O)NCCN3CCOCC3)c(CN3CCCCC3)c2s1,105
CC(C)c1ccc(C(=O)NCc2ccc(-c3nn4cnnc4s3)cc2)cc1,100
COc1ccc(NC(=O)c2cc3nc(-c4ccc(Cl)cc4)cc(C(F)(F)F)n3n2)cn1,121
Cc1cccc(NC(=O)CC2CCN(C(=O)c3cn(-c4ccccc4)nc3-c3ccccc3)CC2)c1,105
CCOc1ccc2c(c1)-c1c(ssc1=S)C(C)(C)N2C(=O)CSc1nccn1C,100
COc1cc(N2C=C(C#N)S(=O)(=O)c3cc(F)ccc32)cc(OC)c1OC,96

# In the list so far, 15 contain an NH in an aromatic ring.
SMILES,GIV Gai3 FP
CCOc1ccc(-n2c(=S)sc3c(=O)[nH]c(SCC(=O)NCC4CCCO4)nc32)cc1 (configuration not stated),122
CCOc1ccc(Cc2n[nH]c(=S)o2)cc1,98
CCC(C)NC(=O)C(C)C1CCN(C(=O)c2cc3cc(Cl)ccc3[nH]2)CC1 (configuration not stated),104
CCOc1cc(-c2nc3sc4c(c3c(=O)[nH]2)CCCC4)ccc1OCCOc1ccccc1OC,104
CC(C)c1nc(CN2CCCCC2C)cc(=O)[nH]1 (configuration not stated),104
O=C(CSc1n[nH]c(-c2ccncc2)n1)c1ccc(Cl)cc1,99
COc1ccc(-c2[nH]nc3c2C2(C(=O)N(CC(=O)O)c4ccccc42)C(C#N)=C(N)O3)cc1OC (configuration not stated),107
CCN(C(=O)CSc1nc2[nH]ncc2c(=O)n1-c1ccc(Br)cc1)c1cccc(C)c1,97
COc1ccc(CN(C)Cc2cc(=O)n3[nH]c(-c4cccc(C)c4)cc3n2)cc1,105
C=CCSc1n[nH]c(NC(C)=O)n1,105
CCOC(=O)c1nnn(-c2nonc2N)c1CSc1nc2ccccc2[nH]1,99
CCOC(=O)CSc1nc2c(sc(=S)n2-c2ccccc2)c(=O)[nH]1,113
CCOC(=O)C1CCCN(C(=O)c2c[nH]c3ccc(S(=O)(=O)N(C)c4ccc(OCC)cc4)cc3c2=O)C1 (configuration not stated),104
Cc1ccc(C)c(CSc2nc3c(=O)[nH]cnc3n2C)c1,102
Cc1cc2[nH]c(C(=O)NCCN3CCOCC3)c(CN3CCCCC3)c2s1,105
